ALR inh: inhibitors of human ALR sulfhydryl oxidase, primary screen, biochemical, H2O2 detection, HRP-luminol luminescence, single point; FAD-linked sulfhydryl oxidase ALR (Homo sapiens), P55789; AID 485317, 2010; inhibition, % (concentration not given with the values); purified ALR, DTT oxidation; 3.8% of 290,000 active;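 active = mean and each replicate at 75% or more; inconclusive = only one of the two met; inactive = neither met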;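 also: stock transfer was 7.5 nL into about 7.5 µL; 0% = neutral wells and 100% = wells with inactivated enzyme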
Ecoli rRNA inh: reduced GFP signal of wild-type E. coli, primary screen, bacterial rRNA inhibitor project, GFP/RFP fluorescence, OD600, single point. E. coli WT GFP vs humanized-ribosome RFP mutants, 24 h; stronger effect = lower value; DMSO median 0, no signal -100. GFP signal change (wild-type ribosome), % (no concentration beside the values). 1.6% of 350,000 active. AID 720706, 2013;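 active = significant combined selectivity score with lowered wild-type GFP, culture density cut under 30%, mutant RFP and density less affected; inactive = any of these conditions unmet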; also: one replicate is shown; some compounds called inactive have numbers as strong as hits
Beta cell apopt: inhibitors of cytokine-induced beta cell apoptosis, primary screen, luminescence; 0.8% of 300,000 active; INS-1E cytokine-induced death, ATP luminescence, 48 h; percent of positive-control rescue, neutral wells zero; protection from apoptosis, % (no concentration beside the values);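 active = all replicates at 75% or more, or half of them and the mean; inconclusive = half reach 75% but not the mean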;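 also: 0% = cytokine-treated negative control wells and 100% = positive control rescue; higher means more ATP so stronger rescue from cytokine killing; wells of about 40 µL received 100 nL stock; the first replicate is given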
Beta2AR agonist: beta2AR agonists driving receptor internalization, primary screen, cell-based, FAP fluorogen, flow cytometry | Beta-2 adrenergic receptor (Homo sapiens), P07550 | Am2.2-beta2AR cells; reference of the scale not given here | response, % (test concentration not listed) | 0.43% of 340,000 active;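 active = response above a set limit, near 3 SD of response in nonfluorescent compounds, cut at about 42% in these data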;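 also: stock transfer was 100 nL into about 11 µL; a reference agonist was the positive control; negative values mostly stem from fluorescent compounds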
LANA-H2B inh: blockers of LANA interaction with H2A/H2B – biochemical, FP readout, HTS, primary screen; Protein LANA1 (Human herpesvirus 8 type P (isolate GK18)), Q9QR71; cell-free LANA-H2A/H2B peptide, fluorescence polarization; inhibition, % (concentration not given with the values); 0.6% of 320,000 active; in the data active = inhibition mostly above about 10%, no sharp cut-off; inactive = mostly below about 6.7%;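 also: stock transfer was 7.5 nL into about 10 µL; 0% = median of vehicle wells and 100% = median of positive control wells; one replicate is shown; the record names a cut of 25% in any replicate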
Target sequence (Q9QR71 whole entry, looked up): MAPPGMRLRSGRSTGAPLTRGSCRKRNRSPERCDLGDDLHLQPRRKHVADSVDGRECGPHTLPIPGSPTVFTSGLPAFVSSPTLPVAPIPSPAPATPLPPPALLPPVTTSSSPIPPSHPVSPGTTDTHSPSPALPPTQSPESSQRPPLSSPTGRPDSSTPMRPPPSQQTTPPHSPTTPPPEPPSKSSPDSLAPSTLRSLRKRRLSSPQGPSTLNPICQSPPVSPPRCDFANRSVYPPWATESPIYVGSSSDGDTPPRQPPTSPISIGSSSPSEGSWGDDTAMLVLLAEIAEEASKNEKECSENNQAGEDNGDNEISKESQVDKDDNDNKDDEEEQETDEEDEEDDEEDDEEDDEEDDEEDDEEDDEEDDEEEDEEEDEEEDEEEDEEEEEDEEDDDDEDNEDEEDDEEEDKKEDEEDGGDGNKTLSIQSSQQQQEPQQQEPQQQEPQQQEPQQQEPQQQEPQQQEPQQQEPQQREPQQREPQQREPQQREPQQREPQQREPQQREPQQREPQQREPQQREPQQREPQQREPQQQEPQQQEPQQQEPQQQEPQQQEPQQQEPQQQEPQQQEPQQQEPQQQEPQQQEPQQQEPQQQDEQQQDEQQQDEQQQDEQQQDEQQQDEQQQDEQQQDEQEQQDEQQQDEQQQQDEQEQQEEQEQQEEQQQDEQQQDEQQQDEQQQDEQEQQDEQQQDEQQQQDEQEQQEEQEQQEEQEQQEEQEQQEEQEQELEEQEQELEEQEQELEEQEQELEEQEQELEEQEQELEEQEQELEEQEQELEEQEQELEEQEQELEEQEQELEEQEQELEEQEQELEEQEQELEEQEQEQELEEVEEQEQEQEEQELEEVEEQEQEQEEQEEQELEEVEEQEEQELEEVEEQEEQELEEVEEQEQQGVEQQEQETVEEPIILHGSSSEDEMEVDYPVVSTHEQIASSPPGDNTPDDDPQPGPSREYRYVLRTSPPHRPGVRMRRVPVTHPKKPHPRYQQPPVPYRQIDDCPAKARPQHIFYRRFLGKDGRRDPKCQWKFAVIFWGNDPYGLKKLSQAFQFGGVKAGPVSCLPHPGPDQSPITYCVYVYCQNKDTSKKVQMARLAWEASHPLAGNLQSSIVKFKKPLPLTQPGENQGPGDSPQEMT
T cruzi repl: inhibitors of intracellular T. cruzi growth, primary screen, luminescence, NIH3T3 host cells; AID 1885, 2009; inhibition, % (no concentration beside the values); T. cruzi beta-gal in NIH3T3, 90 h; 1.4% of 300,000 active;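 active = mean inhibition across valid replicates above about 55%, limit read from the data; inconclusive = mean below that limit but half or more replicates reach it; inactive = mean below it, under half of replicates reach it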;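 also: signal also drops with host cell toxicity which is not excluded here; 0% = plate median of DMSO wells and 100% = zero luminescence signal; higher percent means less beta-gal luminescence so fewer parasites; stock transfer was 50 nL into about 50 µL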
A1 inh: caspase 3/7 activation in MEF A1-2A-BIM cells, primary screen, A1 inhibitor project, cell-based, luminescence, HTS | Caspase-Glo 3/7 luminescence, 3 h; percent of clofoctol response, vehicle zero | caspase activation, % (no concentration beside the values) | 0.066% of 330,000 active;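 active = over half of replicate activation scores above 10%, or exactly half above 10 with the replicate mean above 10; inconclusive = replicate mean below 10 yet half the replicates above 10; inactive = over half of replicates below 10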;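 also: wells of about 30 µL received 50 nL stock; many hits fall short of the cut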
Calb FLC: C. albicans growth inhibition with fluconazole, primary screen, CaCi-2 strain, Alamar Blue fluorescence; C. albicans CaCi-2 (fluconazole-resistant clinical isolate) + fluconazole, 48 h; growth inhibition, % (no concentration beside the values); 0.57% of 300,000 active; AID 1979, 2009;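 active = most replicates above 75%; inconclusive = exactly half above 75%; inactive = most below 75%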;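 also: all wells also contain fluconazole at 8 µg/ml as a sub-toxic cotreatment; 0% = median of DMSO wells and 100% = median of geldanamycin control wells; wells of about 8 µL received 7.5 nL stock; the first replicate is given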
Ecoli rRNA inh OD600: also measured in Ecoli rRNA inh; calls as there; OD600 change, %; measured here: OD600 growth;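 optical density of the mix in the first replicate; 0 = DMSO median and -100 = no signal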
Ecoli rRNA inh RFP: second read-out of Ecoli rRNA inh, no call of its own (marks repeat the call); RFP signal change, %; measured here: RFP humanized mutant strains;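 first replicate; 0 = DMSO median and -100 = no signal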
An asterisk follows results filed as active; ? = inconclusive; · = not tested or not shown; & = joins results of further samples. Not all compounds are listed, so the mix of outcomes need not match the whole.

Fields: ALR inh, Ecoli rRNA inh, Ecoli rRNA inh OD600, Ecoli rRNA inh RFP, Beta cell apopt, Beta2AR agonist, LANA-H2B inh, T cruzi repl, A1 inh, Calb FLC
CCN(CC)C(=O)CC(c1cc(OC)c(OC)c(OC)c1)c1c(O)cc(OC)cc1OC (centres undefined)
    ·, -3, 1, -13, 3, 0, -2.3, 3, 1.8, 0
COc1cc(C(=O)N/N=C/c2coc3ccccc3c2=O)cc(OC)c1OC
    52, -3, 11, 0.2, -17, 9, 6.5, -10, 1.3, -1
Cc1cnc(NC(=O)Nc2ccccc2)c(C)n1
    18, 11, 4, -2.5, -6, 6, -1.7, -12, -0.2, -10
O=C(COC(=O)C1CC1)Nc1nc(-c2ccc(F)c(F)c2)cs1
    -20, -24*, -5.7*, -0.7*, 0, 3, 4.6, -5, -0.5, ·
Cc1ccc(OCC(=O)Nc2ccc(NC(=O)c3ccccc3)cc2)cc1C
    ·, 3, 5, -3.0, 3, 8, -7.5, -2, -0.1, 2
CCOC(=O)[C@H]1[C@H]2COc3ccc(Br)cc3[C@@H]2N2C(=O)CN(Cc3ccccc3)C(=O)[C@@]12C
    3, -21, -31, -0.4, -4, -5, 5.1, ·, -1.5, ·
Cn1c(SCC(=O)NC(=O)CN2CCCC2=O)nnc1-c1ccc(F)cc1
    ·, 20, 18, 3.3, -6, 1, 1.3, -12, 0.8, -15
COc1ccc(CCNC(=O)c2ccccc2N(C)S(=O)(=O)c2ccccc2)cc1
    ·, ·, ·, ·, -18, -3, -7.3, 32, -0.2, 5
Nc1nc(COC(=O)CCC(=O)c2ccc(Cl)cc2)nc(Nc2ccccc2)n1
    1, 5, 8, 6.3, -8, 1, 11, ·, -0.4, ·
COc1ccc(NC(=O)C2CC(=O)NC3=C2C(=O)CC(C)(C)C3)cc1 (centres undefined)
    18, 9, 9, -3.5, -1, -1, -2.3, -12, -0.1, 17
Cc1cc(Br)c(OCC(=O)NN)c2c1CCC2
    -1, -10, -12, -5.8, -4, -4, 1.0, -18, 1.2, 10
COc1ccc(CN2CCCC(CO)(Cc3cccc(Cl)c3)C2)cc1OC (centres undefined)
    -3, 3, 9, -1.7, -1, 23, 1.7, 55*, 0.3, -5
COC(=O)c1ccc(C2OCC(C)(C)CO2)cc1
    ·, 8, 10, -1.8, 14, 10, -4.3, -5, 0.2, 2
Cc1ccc2c(c1)COc1c3ccc(C(=O)NCC4CC4)cc3nn1-2
    -1, ·, ·, ·, 6, 1, -0.9, 3, -0.7, 24
CCNc1ccccc(C(=O)/C=C/c2ccc3c(c2)OCO3)c1=O
    41, ·, ·, ·, -1, -2, -11, -15, 0.4, -8
O=C(Nc1nccs1)c1cccc(S(=O)(=O)N2CCOCC2)c1
    -13, ·, ·, ·, -1, -2, -2.2, -12, -0.2, 23
COc1cc(OC)c(C=O)c(OC(=O)N2CCOCC2)c1
    48, 10, 9, 7.7, -12, -7, 2.4, -3, 0.9, 10
CCc1sc(N)nc1-c1ccccc1
    ·, -10, 0, 0.2, -10, -3, ·, -1, 0.0, -8
Cc1ccc2oc(=O)c3cc(C(=O)NCCN4CCc5ccccc5C4)sc3c2c1
    -19, -13, -48, 11, -1, -6, 0.7, 11, -1.4, 3
COc1ccc(NC(=O)N2c3ccc(OC)cc3C(C)=CC2(C)C)cc1
    56, ·, ·, ·, -1, 5, 7.0, -15, 0.4, 8
CC1(C)CC(=O)C(N=Nc2ccc(Cl)cc2)=C(O)C1
    -4, ·, ·, ·, -11, -20, 6.9, -18, 1.8, -7
COc1ccc(CNC(=O)COC(=O)[C@H](Cc2ccccc2)NC(=O)c2cccs2)cc1
    ·, -22, -19, -12, -1, 4, 9.2, ·, 0.6, ·
CCC[C@@H]1CCCO[C@@](C(=O)NCCN2CCOCC2)(C(F)(F)F)C1
    -12, -5, -2, -7.7, -1, -5, 1.1, 2, 0.3, -1
Cc1sc(NC(=O)c2ccc(Cl)s2)c(C(N)=O)c1C
    2, ·, ·, ·, 6, -8, -1.5, 33, -0.2, 4
Cc1nc(N2CCC(C)CC2)c2c(C)c(C(=O)Nc3ccccc3C(F)(F)F)sc2n1
    ·, 2, 12, 1.3, 1, -7, -1.0, 53, -1.2, -3
C[C@H](CO)N1C[C@H](C)[C@@H](CN(C)C(=O)Nc2ccccc2)Oc2c(NC(=O)Nc3ccccc3)cccc2C1=O
    1, -4&0, -5&8, -2.5&3.1, 2, -2, 3.4, ·, -0.5, ·
COc1ccc(C)cc1NC(=O)Nc1ccccc1SC
    -3, 0, 3, -1.0, 0, -2, 2.2, -7, 0.2, 19
Cc1ccc(SCC(=O)OCC(=O)NC(C)c2ccc(Br)cc2)cc1 (centres undefined)
    0, 4, 3, -1.2, -4, 5, 1.4, 2, 1.0, -2
COc1ccc2nc(CCN(C)C(=O)C3CCC(=O)N(Cc4cccc(F)c4)C3)[nH]c2c1 (centres undefined)
    -7, 3, 2, -2.9, -3, 5, 3.3, -4, 0.2, 12
COC(C(=O)NNC(=O)CCc1ccccc1)c1ccccc1 (centres undefined)
    2, 15, 5, 1.5, -5, 3, 3.1, -1, 1.7, -7
Cc1nc(SCC(=O)NC2CCCC2)c2c(C)c(C)sc2n1
    -6, -1, -5, -4.0, -6, -14, 1.3, 3, 0.5, -4
Cc1ccc(N(C)C(=O)c2cc(S(=O)(=O)N3CCc4ccccc43)cn2C)cc1
    5, -14, -46, -7.6, -4, 2, -2.0, 5, -0.4, 3
CCOc1ccc(-c2c(C(=O)N/N=C/c3sccc3C)nnn2-c2nonc2N)cc1
    3, -7, -1, 0.8, 10, -9, -3.4, 5, -1.1, 6
COc1ccc(N2CCN(S(=O)(=O)c3c[nH]c(=O)[nH]c3=O)CC2)cc1
    1, 9, 9, -2.7, ·, -3, -8.2, -5, 0.4, -3
O=C(COC(=O)c1ccc(F)cc1)Nc1ccc(Cl)cn1
    -11, 8, 10, -3.6, -3, -6, -0.4, -4, 0.7, -9
COc1ccc(CCNC(=O)C2CC=CCC2C(=O)O)cc1 (centres undefined)
    0, -2, 0, -0.3, -9, 0, 4.9, -11, -1.4, 5
CCN(CC)S(=O)(=O)c1ccc(NC(=O)c2c(-c3ccccc3)noc2C)cc1
    93*, -13, -14, -9.0, 5, 1, -4.4, 3, 1.0, 14
CCCOc1ccc(Cn2c(C)nc([N+](=O)[O-])c2SCC(O)COC)cc1[N+](=O)[O-] (centres undefined)
    99*, ·, ·, ·, 0, -10, -1.5, 7, -0.7, -2
COc1ccc(NC2CCCN(C(=O)CCN3CCCC3=O)C2)cc1OC (centres undefined)
    99*, 10, 14, 2.0, -5, -5, 2.9, -14, 0.4, 1
COc1ccc(-c2nnn(CC(=O)N(CC(=O)NC3CCCC3)c3cccc(C)c3)n2)cc1OC
    -10, ·, ·, ·, 4, 1, 2.4, 1, -0.3, 2

As a short view, some entries already given:
Fields: ALR inh, Ecoli rRNA inh, Ecoli rRNA inh OD600, Ecoli rRNA inh RFP, Beta cell apopt, Beta2AR agonist, LANA-H2B inh, T cruzi repl, A1 inh, Calb FLC
COc1ccc(N2CCN(S(=O)(=O)c3c[nH]c(=O)[nH]c3=O)CC2)cc1
    1, 9, 9, -2.7, ·, -3, -8.2, -5, 0.4, -3
O=C(COC(=O)c1ccc(F)cc1)Nc1ccc(Cl)cn1
    -11, 8, 10, -3.6, -3, -6, -0.4, -4, 0.7, -9
COc1ccc(CCNC(=O)C2CC=CCC2C(=O)O)cc1 (centres undefined)
    0, -2, 0, -0.3, -9, 0, 4.9, -11, -1.4, 5
CCN(CC)S(=O)(=O)c1ccc(NC(=O)c2c(-c3ccccc3)noc2C)cc1
    93*, -13, -14, -9.0, 5, 1, -4.4, 3, 1.0, 14
CCCOc1ccc(Cn2c(C)nc([N+](=O)[O-])c2SCC(O)COC)cc1[N+](=O)[O-] (centres undefined)
    99*, ·, ·, ·, 0, -10, -1.5, 7, -0.7, -2
COc1ccc(NC2CCCN(C(=O)CCN3CCCC3=O)C2)cc1OC (centres undefined)
    99*, 10, 14, 2.0, -5, -5, 2.9, -14, 0.4, 1
COc1ccc(-c2nnn(CC(=O)N(CC(=O)NC3CCCC3)c3cccc(C)c3)n2)cc1OC
    -10, ·, ·, ·, 4, 1, 2.4, 1, -0.3, 2

Other records:
Fields: ALR inh, Ecoli rRNA inh, Ecoli rRNA inh OD600, Ecoli rRNA inh RFP, Beta cell apopt, Beta2AR agonist, LANA-H2B inh, T cruzi repl, A1 inh, Calb FLC
O=C(COc1ccccc1C(=O)NCC1CCCO1)Nc1ccc(Br)cc1 (centres undefined)
    0, 2, 2, -0.8, 0, -2, -6.0, 12, -0.3, 0
O=C(NCCCN1CCN(CCCNC(=O)c2ccccc2F)CC1)c1ccccc1F
    -9, ·, ·, ·, -4, 0, 1.4, 4, -0.4, -15
Cc1ccccc1S(=O)(=O)Cc1ccc(C(=O)NCCCN(C)Cc2ccccc2)o1
    0, 3, 3, -1.7, 3, -3, 0.4, 26, 0.1, 2
CCCCn1c(N)c(N(CCC(C)C)C(=O)COC(=O)c2cccnc2Cl)c(=O)[nH]c1=O
    -3, -4, 10, -4.5, 9, -2, 1.2, ·, -1.4, ·
O=C(O)[C@H]1CCCC[C@H]1C(=O)Nc1ccc(S(=O)(=O)N2CCCCC2)cc1
    ·, 1, 0, 2.5, -5, 2, 6.9, -2, 0.1, -2
Nc1c(C(=O)NCCc2ccccc2)nnn1Cc1ccc(Cl)cc1
    ·, ·, ·, ·, -2, 4, -0.1, 12, -1.3, 45
Cc1ccccc1NC(=O)/C(C#N)=C/c1ccsc1
    -5, ·, ·, ·, 5, -6, 3.3, -17, 0.1, -6
CC(C)c1ccc(NC(=S)NNC(=O)c2cccnc2)cc1
    36, 8, 0, 0.2, -1, 2, 0.7, -1, 0.9, ?
Cc1ccc2[nH]c3c(=S)nc[nH]c3c2c1
    ·, ·, ·, ·, -4, 1, -4.3, -13, -0.1, ?
CNc1cc([N+](=O)[O-])ccc1N/C=C/C(=O)c1cccs1
    1, ·, ·, ·, 5, -4, 0.3, 10, -0.6, 21
CCOC(=O)C(C)Sc1cnccn1 (centres undefined)
    -4, 13, 4, 0.2, -1, 3, -0.3, -12, 0.0, -12
COc1ccc(N2CC(C(=O)NC3CCCCC3)CC2=O)cc1 (centres undefined)
    -7, 13, 15, -1.4, -6, 3, -0.2, -5, 0.2, 4
CCOc1ccc(-c2[nH]ncc2-c2ccccc2)c(O)c1
    41, -42, -68, -5.8, ·, -1, -1.8, -9, 0.2, 0
O=S(=O)(Cc1ccc(Cl)cc1)NCc1ccc2c(c1)OCO2
    -1, 6, 3, -2.1, -1, -1, -1.9, -2, 1.2, -28

Screening results as filed in PubChem.
